VACV Venus inh: inhibitors of vaccinia virus (Venus reporter) | Vaccinia virus Venus reporter expression, fluorescence | Potency, µM (titrated, usually from 36.5 µM), for inactives: at the top dose activity change, negative = inhibition, most hits filed as inhibitors | 330,000 compounds, 0.46% hits; active means well fitted inhibition curve with a large enough effect; inconclusive means small, poorly fitted or top-dose-only effect; inactive means no such curve, though single readings can be large or run the other way; tested in A549 cells; further: nearly all actives have a fitted effect of over 30% in size; inactives centre near -10
VACV mCherry inh: inhibitors of vaccinia virus infection (mCherry reporter signal) | Vaccinia virus mCherry reporter infection, fluorescence; about a quarter of the inactives have no number | Potency, µM (doses to about 36.5 µM), without a hit: at the top dose activity change, negative = inhibition, actives largely listed as inhibitors | 310,000 compounds, 0.63% hits | AID 720579; active = well fitted inhibition curve with a large enough effect; inconclusive = small, poorly fitted or top-dose-only effect; inactive = no such curve, though single readings can be large or run the other way; tested in A549 cells; further: nearly all actives have a fitted effect of over 35% in size; inactives centre near -10
Active calls of the source: *; i = inactive; ? = inconclusive; nt = no result given; [ ] = dose if it differs, or a comment. On the % scale 0 is the no-effect control and ±100 the full control effect; potency means the concentration at half of the fitted maximal effect.

Values run as follows: VACV Venus inh, VACV mCherry inh
- Cc1cccc(CNc2ncncc2-c2ccc3c(c2)OCO3)c1
→ -3%, -6%
- Cc1ccsc1C(=O)OCC(=O)NCc1ccco1
→ -7%, 0%
- O=C1NC(=O)C(=Cc2c(Cl)cccc2Cl)C(=O)N1
→ -11%, -18%
- COCc1cc(C)nc(SCC(=O)Nc2ccc3c(c2)OCO3)c1C#N
→ -25%, -4%
- Cc1cc(C)n(-c2nc3cc(Cl)ccc3nc2N2CCN(c3ccccc3F)CC2)n1
→ -8%, -10%
- Cc1ccccc1Nc1nc(-c2sc(NC(=O)c3ccco3)nc2C)cs1
→ -13%, -25%
- COc1ccc(CCNS(=O)(=O)c2cc3c(cc2C)NC(=O)CO3)cc1OC
→ -14%, i
- Cc1ccc(C(=O)O/N=C\c2ccc(N3CCCCC3)c([N+](=O)[O-])c2)cc1
→ -3%, nt
- O=C(COC(=O)CCCNC(=O)c1ccc(Cl)cc1)Nc1cc(Cl)ccc1Cl
→ -6%, -6%
- CC(=O)c1ccc(NC(=O)COC(=O)c2c3c(nc4ccccc24)/C(=C\c2cccs2)CCC3)cc1
→ ?, -11%
- C/C=C(\C)C(=O)N1CC2(CC(c3cccc(NC(=O)COc4ccc(Cl)cc4)c3)=NO2)C[C@@H]1C(N)=O (some centres undefined)
→ -19%, i
- Fc1ccc(Nc2nc(-c3cccnc3)nc3ccccc23)cc1
→ 64%[activator], 54%[activator]
- CCC(C(=O)Nc1ccc(OC)c(Cl)c1)c1ccccc1 (centres undefined)
→ -4%, -3%
- COc1ccc(OC)c(C(=O)CC2(O)C(=O)N(Cc3ccccc3C)c3ccccc32)c1 (centres undefined)
→ -18%, -15%
- Cc1nn2c(-c3ccccn3)ccnc2c1Cl
→ -2%, -9%
- COc1ccc(OCCC(=O)OCC(=O)NCc2ccccc2OC)cc1
→ 4%, i
- CC(=O)Nc1ccc(NS(=O)(=O)c2c(C(=O)N3CCCCCC3)c(C)n(C)c2C)cc1
→ -5%, -9%
- Cc1cc(S(=O)(=O)Nc2cc(C)c(O)c(C)c2)c(C)s1
→ -14%, -19%
- CCOc1cc(C(=O)NCCCNC(=O)c2cc(OCC)c(OCC)c(OCC)c2)cc(OCC)c1OCC
→ 7%, 2%
- Cc1ccc(C(=O)NC(O)C(Cl)(Cl)Cl)cc1 (centres undefined)
→ -6%, -8%

The listing continues.
Values run as follows: VACV Venus inh, VACV mCherry inh
- COc1ccc(C2CC(c3cc(OC)ccc3OC)n3nnnc3N2)cc1 (centres undefined)
→ -17%, nt
- Brc1ccc[n+](CCC2CCCCC2)c1
→ ?, ?
- O=C(Cc1ccccc1)N/N=C/c1cccn1-c1ccc([N+](=O)[O-])cc1
→ -15%, -1%
- CC[C@H](C)NC(=O)CCCc1nnc2n(CCC(C)C)c(=O)c3sccc3n12
→ -19%, -15%
- CCCOc1cc(NCc2ccccc2)c2ncn(C(C)C)c2c1
→ ?, ?
- CCN(CC(=O)Nc1ccccc1C(F)(F)F)C(=O)CCS(=O)(=O)c1ccc(Cl)cc1
→ -28%, ?
- CCOc1ccccc1NC(=O)NCCc1c[nH]c2ccccc12
→ -21%, -30%
- C=CCN(C(=O)CCC(=O)Nc1cc(C)on1)C(C(=O)NC1CCCC1)c1cccnc1 (centres undefined)
→ 3%, -9%
- COc1ccc2nc(N3CCCC(C(=O)NCCc4ccc(OC)c(OC)c4)C3)sc2c1 (centres undefined)
→ -23%, -26%
- Cc1nn2c(C)c(C(=O)NCC(C)c3ccccc3)cnc2c1-c1ccccc1 (centres undefined)
→ -7%, -14%
- O=C(CCN1c2ccccc2Sc2ccccc21)Nc1ccccc1
→ -11%, i
- O=C(NC1CCSC1=O)c1ccc(Oc2cccc(C(F)(F)F)c2)nc1 (centres undefined)
→ -24%, -15%
- O=C(CCCC1=NS(=O)(=O)c2ccccc2N1)N1CCC2(CC1)OCCO2
→ ?, -23%
- NC(=O)CC(NC(=O)c1ccccc1)c1ccc(NCCN2CCCCC2)c([N+](=O)[O-])c1 (centres undefined)
→ -4%, i
- O=C(N/N=C/c1ccco1)c1cccc([N+](=O)[O-])c1
→ -14%, -13%
- COc1ccc2c(CNC3CCC(C)CC3)c(C(=O)O)n(Cc3ccccc3)c2c1 (centres undefined)
→ -2%, -3%
- CC1CCCCN1S(=O)(=O)c1ccc(C(=O)Nc2sccc2C(N)=O)cc1 (centres undefined)
→ -20%, -8%
- Cc1nc2cc(F)ccc2n1C1CCN(C(=O)c2ccc(F)cc2F)CC1
→ -24%, i
- Cc1cccc(-c2noc(CCCC(=O)NCC3CCCO3)n2)c1 (centres undefined)
→ 2%, -6%
- CCn1ccc2cc(S(=O)(=O)N3CCC(C(=O)NCCOC)CC3)ccc21
→ 4%, -11%

Following part.
Values run as follows: VACV Venus inh, VACV mCherry inh
- CCCn1c(NCc2ccc3c(c2)OCO3)nc2ccccc21
→ -11%, -24%
- CC(C)n1c(SCC(=O)Nc2nc3ccccc3s2)nc2c1c(=O)n(C)c(=O)n2C
→ -12%, -23%
- C=CCSc1nnc(-c2nnc(SCC=C)n2CC)n1CC
→ -5%, -12%
- COc1cc(NC(=O)COC(=O)CSc2ccc3ccccc3c2)c(C)cc1[N+](=O)[O-]
→ 1%, -3%
- CC(=O)c1cccc(NC(=O)C2CCCN(S(C)(=O)=O)C2)c1 (centres undefined)
→ -21%, -9%
- C/C(=N\Nc1nccnc1Cl)c1ccc(F)cc1
→ 2%, -3%
- N#Cc1ccc(C23CC4CC(CC(C4)C2)C3)[nH]c1=O
→ -12%, -14%
- Cc1c(/C=N\NC(=O)c2csc3ccccc23)cnn1C
→ ?, ?
- Cc1ccc(NC(=O)COC(=O)/C=C/c2ccccc2)cc1S(=O)(=O)N1CCOCC1
→ -3%, i
- COc1ccc(/C=C2\SC(=NCc3ccccc3)NC2=O)cc1
→ -12%, -20%
- CCOc1ccc(NC(=O)c2cc(S(=O)(=O)N3CCc4ccccc43)ccc2F)cc1
→ ?, ?
- Cc1ccccc1NC(=O)Nc1nc(CN)cs1
→ -6%, -8%
- O=C(CCCc1c[nH]c2ccccc12)NCc1ccc2c(c1)OCO2
→ -15%, -2%
- O=C(NCc1ccco1)c1cc2ccc(O)cc2oc1=O
→ -9%, i
- COc1cccc(N2CCN(C(=O)c3ccc(CS(=O)Cc4ccc(Cl)cc4)o3)CC2)c1 (centres undefined)
→ -12%, -9%
- COC1=CC(=O)C(O)=C(CCCCCCC/C=C/CCCCCCCC2=C(O)C(=O)C=C(OC)C2=O)C1=O
→ -4%, -1%
- C[C@@H]1CCCCO[C@H](CN(C)Cc2ccccc2)[C@@H](C)CN([C@H](C)CO)C(=O)c2cc(NS(=O)(=O)c3ccc(Cl)cc3)ccc2O1
→ ?, -16%
- COC(=O)c1cccc(CN2C(=O)C(C)Oc3ccc(C)cc32)c1 (centres undefined)
→ 6%, 5%
- O=C(NCC1CCCO1)c1nn2c(C(F)(F)F)cc(-c3cc(Br)cs3)nc2c1Br (centres undefined)
→ 0%, -8%
- Cc1ccc(SC(C)C(=O)NCCC2=CCCCC2)cc1 (centres undefined)
→ -1%, -9%

Remaining list, next part:
molecule	VACV Venus inh	VACV mCherry inh
O=C(c1ccc(F)cc1)C1CCN(Cc2ccc(F)cc2)CC1	-14%	-13%
CCOC(=O)c1ccc(N2C(=O)CC(N(C)CCc3ccc(OC)c(OC)c3)C2=O)cc1 (centres undefined)	-6%	nt
COc1ccc(CNC(=O)CCc2c(C)nn(-c3ccc(N4CCCCC4)nn3)c2C)c(OC)c1	-13%	-5%
CN(c1ccc(OCC(=O)N2CCCCC2)cc1)S(=O)(=O)c1cccs1	-17%	i
O=C(Oc1ccc(NC(=O)c2cc3c(cc2Br)OCO3)cc1)c1ccccc1	8%	i
CC(C)C(NS(=O)(=O)c1cccc2nsnc12)C(=O)N1CCn2c1nc1ccccc12 (centres undefined)	-6%	0%
Cc1ccc(-n2nc(C(=O)N3CCCCC3C)c(=O)n(C)c2=O)cc1 (centres undefined)	-4%	-3%
O=C(CSc1nnc2ccccn12)c1ccc2c(c1)OCCO2	12%	nt
O=C(NNC(=O)c1ccccc1O)c1cc2ccccc2o1	-6%	?
COC(=O)CC1=C(C(=O)OC)C(c2cccc(OCC(N)=O)c2)C(C#N)=C(N)O1 (centres undefined)	4%	-5%
O=C(COC(=O)c1cccc(O)c1)c1ccccc1	-8%	-14%
O=C(CC1Sc2ccccc2NC1=O)NNC(=O)Nc1ccc(Cl)cc1 (centres undefined)	-20%	i
NS(=O)(=O)c1ccc(NC(=S)N2CCN(c3ccccc3)CC2)cc1	-16%	-26%
Cn1cc(SCC(=O)Nc2nc3ccccc3s2)c2ccccc21	?	?
CC1CCC(=NNC(=O)Cc2ccccc2)CC1 (centres undefined)	-7%	i

One compound at a time, as listed above:
O=C(Oc1ccc(NC(=O)c2cc3c(cc2Br)OCO3)cc1)c1ccccc1 in the list: VACV Venus inh = 8%; VACV mCherry inh = i
COC(=O)CC1=C(C(=O)OC)C(c2cccc(OCC(N)=O)c2)C(C#N)=C(N)O1 (centres undefined) in the list: VACV Venus inh = 4%; VACV mCherry inh = -5%

(listing goes on)
molecule	VACV Venus inh	VACV mCherry inh
COC(C[C@@H]1O[C@@H]1C(=O)COCc1ccccc1)OC	-14%	i
C=CCN1C(=O)CN=C1NCc1ccccc1	-18%	i
Cc1ccc(Nc2nc3ccccc3o2)cc1F	-15%	-24%
Cc1cc(OCC(=O)NC(C)(C)C)ccc1Cl	-14%	i
O=C(NCCC1=CCCCC1)c1ccc2c(c1)N(Cc1ccccc1F)C(=O)c1ccccc1S2=O (centres undefined)	-21%	-25%
COc1ccccc1N1CCN(C(=O)c2sc3nc(-c4ccc(F)cc4)cn3c2C)CC1	?	?
Cc1ccc(CNC(=O)CCS(=O)(=O)Cc2ccc(C)cc2)cc1	0%[7.34 µM]	i[7.34 µM]
O=C(Nn1c(SCc2ccc([N+](=O)[O-])cc2)nc2ccccc2c1=O)c1ccc(F)cc1	-11%	-17%
C/C(=N\NC(=O)COc1cccc(Cl)c1)c1ccc2c(c1)OCCO2	-6%	-20%
CCN(c1ccc(C)c(C)c1)S(=O)(=O)c1ccc2c(c1)CCN2C(=O)CCC(=O)O	-2%	-7%
CCc1cccc(NC(=O)C2CCN(C(=O)c3cnn(-c4ccccc4)c3-n3cccc3)CC2)c1	-27%	?
CCCn1c(NC(=O)c2ccccc2)nc2ccccc21	?	?
CCCNC(=O)c1c(O)c2cccc3c2n(c1=O)CCC3	-27%	i
CN1c2ccccc2N(C)C1(C)c1cccc2ccccc12	-13%	-29%
O=C(Nc1ccc(S(=O)(=O)C(F)F)cc1)c1cccc(S(=O)(=O)N2CCOCC2)c1	-16%	-7%

The list goes on.
molecule	VACV Venus inh	VACV mCherry inh
CCOc1ccc(CCNC(=O)CCc2cn(Cc3ccccc3F)c3ccccc23)cc1OCC	-8%	-11%
Cn1c(=O)c([N+](=O)[O-])c(NCc2ccccc2Cl)c2ccccc21	-24%	-10%
Cc1ccccc1OCCCn1c(CO)nc2ccccc21	-11%	i
Cc1c(NC(=O)c2ccc(OC(C)C)cc2)cccc1-c1nc2ncccc2o1	-14%	-20%
C[C@H](CO)N1C[C@H](C)[C@@H](CN(C)CC2CC2)Oc2c(NC(=O)Cc3ccccc3)cccc2C1=O	-19%	i
Cc1cccc(NC(=S)NNC(=O)c2ccccc2OC(F)F)c1	-16%	-13%
CN(C)C(=O)c1cccc(-c2cnc3c(NC=O)cc(-c4cc(F)c(F)c(F)c4)cn23)c1	-14%	-22%
O=C(Nc1nnc2n1CCS2)c1cc(C(F)(F)F)cc(C(F)(F)F)c1	-7%	-2%
CCOC(=O)C(C)Sc1nc(-c2ccccc2)ccc1C#N (centres undefined)	2%	-5%
CC(C)(C(=O)c1ccccc1)/[N+]([O-])=C/c1ccccc1F	-7%	-7%
CCC1CCCCN1S(=O)(=O)c1ccc(S(=O)(=O)N(Cc2ccccn2)CC2CCCO2)cc1 (centres undefined)	-20%	0%
CCc1nnc(NC(=O)C2COc3ccccc3O2)s1 (centres undefined)	-11%	nt
O=C(NC(=O)c1cccc(Cl)c1)OC[C@@H]1CCCN2CCCCC12 (some centres undefined)	-1%	-21%
COc1ccc(CCNC(=O)c2ccncc2)cc1OC	-2%	nt
Cc1noc(C)c1COC(=O)COc1ccc(C#N)cc1	0%	i

New compounds follow.
molecule	VACV Venus inh	VACV mCherry inh
CCCCSc1nc2c([nH]1)c(=S)n(C)c(=O)n2C	-21%	-8%
COc1ccc(C(CNC(=O)c2oc3ccc(Br)cc3c2C)N2CCCCC2)cc1 (centres undefined)	5%	-12%
Cc1cccc(CNc2ncnc3ccc(-c4cccc(NS(C)(=O)=O)c4)cc23)c1	22%	4%
COc1ccc(NS(=O)(=O)c2cc([N+](=O)[O-])ccc2N/N=C/c2c(C)[nH]c3ccccc23)cc1	-3%	-14%
COc1ccc(-c2nc3ccc(C(=O)NCc4ccc(C)cc4)cc3nc2-c2ccc(OC)cc2)cc1	-13%	-26%
Cc1ccn(-c2n[nH]c(C)c2[N+](=O)[O-])n1	-4%	i
N#Cc1cc(C#N)c(SCC(=O)NCC2CCCO2)nc1N (centres undefined)	-1%	i

Already shown: an excerpt of the list.
molecule	VACV Venus inh	VACV mCherry inh
COc1ccc(-c2nc3ccc(C(=O)NCc4ccc(C)cc4)cc3nc2-c2ccc(OC)cc2)cc1	-13%	-26%
Cc1ccn(-c2n[nH]c(C)c2[N+](=O)[O-])n1	-4%	i
N#Cc1cc(C#N)c(SCC(=O)NCC2CCCO2)nc1N (centres undefined)	-1%	i

Screening data: PubChem BioAssay, National Center for Advancing Translational Sciences (NCATS)
